HPGD inh: blocks human HPGD enzyme activity. Potency, µM, inactives show at the highest dose activity change, negative = inhibition, hits mostly inhibitors. AID 894. actives 4.3% (n = 150,000). P15428. purified HPGD, NADH fluorescence kinetic, PGE2 substrate; active = well fitted inhibition curve with a large enough effect (not every such curve was filed as active); inconclusive = small, poorly fitted or top-dose-only effect, or another doubt; inactive = no such curve, though single readings can be large or run the other way;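 note: top concentration of the series not given in the record; plate controls included wells without enzyme; inactives centre near -10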
Target sequence (P15428 whole entry, looked up): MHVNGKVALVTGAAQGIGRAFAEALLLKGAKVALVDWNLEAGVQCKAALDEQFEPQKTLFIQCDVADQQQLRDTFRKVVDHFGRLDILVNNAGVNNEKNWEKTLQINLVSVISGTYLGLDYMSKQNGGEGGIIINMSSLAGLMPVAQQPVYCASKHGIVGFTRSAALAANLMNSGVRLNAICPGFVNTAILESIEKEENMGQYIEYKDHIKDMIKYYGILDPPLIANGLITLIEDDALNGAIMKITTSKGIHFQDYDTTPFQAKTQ
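20 nM HPGD preincubated 15 min at room temperature with compound in 50 mM Tris-HCl pH 8, 0.01% Tween 20. Started with 1 mM NAD+ and 30 uM prostaglandin E2; NADH fluorescence (360/450 nm) read 5 times over 30-s intervals, last minus first.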
Active calls of the source: *; ? = inconclusive; & = joins results of further samples; ! = not active in a repeat. % is set by controls: 0 for no effect and ±100 for the full control effect; potency is the fitted concentration of half-maximal effect. Only part of the results is shown. The share of hits here may be higher or lower than overall.

| SMILES | HPGD inh |
| --- | --- |
| CC(=O)Oc1c(C)cccc1C(=O)O | ? |
| O=C(NC(c1ccc(Cl)cc1)P(=O)(Oc1ccccc1)Oc1ccccc1)OCc1ccccc1 (stereo not given) | -4% |
| CCC(=NCc1ccc2c(c1)OCO2)c1c(O)n(C2CCCCC2)c(=O)[nH]c1=O | -29% |
| CC1CC2OC2/C=C\C=C/C(=O)Cc2c(Cl)c(O)cc(O)c2C(=O)O1 (stereo not given) | 18µM* |
| CN1CCN(c2ccc(S(C)(=O)=O)cc2[N+](=O)[O-])CC1 | -13% |
| O=c1cccc2n1CC1CC2CN(Cc2cccc(Cl)c2Cl)C1 (stereo not given) | -5% |
| COc1cccc([C@@]2(O)CCCC[C@@H]2CN(C)C)c1 | 0% |
| O=Cc1cn(CCCOc2ccccc2)c2ccccc12 | ? |
| CCC(C)NC(=O)c1c(N)n(CCCOC)c2nc3ccccc3nc12 (stereo not given) | ? |
| CC(C)(O)C(=O)Nc1ccc([N+](=O)[O-])c(C(F)(F)F)c1 | 1% |
| O=C(Cc1ccccc1)Oc1ccc(N2C(=O)CCC2=O)cc1 | ? |
| Cc1cccc(N2C(=O)NC(=O)/C(=C/c3ccc([N+](=O)[O-])o3)C2=O)c1 | 13µM* |
| CP(=O)(O)CCCN | -8%&-14%&-7% |
| O=P(Nc1c(Cl)cccc1Cl)(c1ccccc1)c1nc2c(s1)CCCC2 (stereo not given) | -11% |
| CN(C)CCN=Cc1c(O)n(-c2cccc(C(F)(F)F)c2)c(=O)[nH]c1=O | -18% |
| Cc1cc(N2C(=O)C3CCCN3C2c2cccc(Cl)c2)no1 (stereo not given) | -13% |
| CCCCn1c(O)c(C(C)=Nc2ccc(C(=O)O)cc2)c(=O)[nH]c1=O | -27% |
| Oc1cc(Cl)c(Cl)c(Cl)c1Cl | ? |
| CCCCc1nc(N2CCNCC2)c(C#N)c2c1CSC(C)(C)C2 | -16% |
| N#CCCn1cc(C(=O)Nc2ccccc2Cl)c(-c2ccc([N+](=O)[O-])cc2)n1 | -15% |
| CN1C[C@H](CNC(=O)OCc2ccccc2)C[C@@H]2c3cccc4c3c(cn4C)C[C@H]21 | -2%&-1%&-22%&-15% |
| CCOc1ccc(-n2c(-c3ccoc3)nc3ccccc3c2=O)cc1 | -2% |
| O=C1N(CN2CCOCC2)c2ccccc2C1(O)c1c[nH]c2ccccc12 (stereo not given) | -4% |
| Cc1ccc2c(c1)C1CN(C)CCC1N2C(=O)Cn1nnc(-c2ccccc2F)n1 (stereo not given) | -6% |
| Cn1nc(-c2ccc(OCC(=O)N3CCN(Cc4ccccc4)CC3)cc2)c2ccccc2c1=O | -24%&-6% |

Molecules listed so far that have a furan ring, fused or not, in the order listed:
| SMILES | HPGD inh |
| --- | --- |
| Cc1cccc(N2C(=O)NC(=O)/C(=C/c3ccc([N+](=O)[O-])o3)C2=O)c1 | 13µM* |
| CCOc1ccc(-n2c(-c3ccoc3)nc3ccccc3c2=O)cc1 | -2% |

Not a retest: seven of the compounds above.
| SMILES | HPGD inh |
| --- | --- |
| CCCCc1nc(N2CCNCC2)c(C#N)c2c1CSC(C)(C)C2 | -16% |
| N#CCCn1cc(C(=O)Nc2ccccc2Cl)c(-c2ccc([N+](=O)[O-])cc2)n1 | -15% |
| CN1C[C@H](CNC(=O)OCc2ccccc2)C[C@@H]2c3cccc4c3c(cn4C)C[C@H]21 | -2%&-1%&-22%&-15% |
| CCOc1ccc(-n2c(-c3ccoc3)nc3ccccc3c2=O)cc1 | -2% |
| O=C1N(CN2CCOCC2)c2ccccc2C1(O)c1c[nH]c2ccccc12 (stereo not given) | -4% |
| Cc1ccc2c(c1)C1CN(C)CCC1N2C(=O)Cn1nnc(-c2ccccc2F)n1 (stereo not given) | -6% |
| Cn1nc(-c2ccc(OCC(=O)N3CCN(Cc4ccccc4)CC3)cc2)c2ccccc2c1=O | -24%&-6% |

Next part
| SMILES | HPGD inh |
| --- | --- |
| COc1ccc2[nH]c(C)c(CCN3CCC(=O)C(C)C3C)c2c1 (stereo not given) | -11% |
| CC1(C)C(O)CC(=O)[C@]2(C)C1CC(=O)[C@]1(C)C2CC[C@@]2(C)C(c3ccoc3)OC(=O)C3O[C@@]321 (stereo not given in full) | -13% |
| O=C(O)c1cc(O)c(O)c(O)c1 | 7.1µM*! |
| CCN1CCN(c2ccc([N+](=O)[O-])cc2C=C2C(=O)NC(=O)NC2=O)CC1 | -11% |
| [N-]=[N+]=CC(=O)OC[C@H](N)C(=O)O | -5% |
| CC(C)(C)c1ccc(O)c(C[N+](C)(C)C)c1 | -16% |
| CC(=O)C1=C(C)OC(N)=C(C(=O)OC(C)C)C12C(=O)Nc1ccccc12 (stereo not given) | 0% |
| COC(=O)OCC12CCC(O1)C1(C)C(=O)OCC21 (stereo not given) | -5% |
| CCC(C(=O)N1CCC2(CC1)OCCO2)c1ccccc1 (stereo not given) | -11% |
| O=C(CSC1c2ccccc2-c2ccccc21)N/N=C/c1ccccc1 | -6% |
| CCC(=O)N1N=C2C3CCN(CC3)C2C1c1ccc(C)cc1 (stereo not given) | -2% |
| CC(C(=O)c1c[nH]c2ccccc12)N1CCSCC1 (stereo not given) | -1% |
| Cc1sc2c(c1C)C(c1ccc(C(C)(C)C)cc1)=NCC(=O)N2CC(=O)Nc1nccs1 | -26% |
| Nc1ccccc1C(=O)OC1CSC1 | -29% |
| CCCN(CC#CCO)CCC | -2% |
| CCOc1ccc(N=Cc2c(O)n(C(C)(C)C)c(=O)[nH]c2=O)cc1 | ? |
| CNC(=O)O/N=C/C(C)(C)SC | -9%&-3% |
| CC(C)N(CCC(C(N)=O)(c1ccccc1)c1ccccn1)C(C)C (stereo not given) | -2%&-18%&-20%&-1% |
| COc1ccc2c(c1)C13CCCC[C@@H]1C(C2)N(C)CC3 (stereo not given in full) | -9% |
| CN1C(=O)/C(=C/c2ccc(N3CCCCCC3)o2)C(=O)NC1=S | -20% |
| O=c1[nH]c(=O)n(Cc2ccco2)c(O)c1C=NCc1ccco1 | 28µM* |
| COc1ccc(-c2cc(=Nc3ccccc3)c3cc(C)ccc3o2)cc1 | ? |
| Nc1ccc(Cl)c(Cl)c1 | -3% |
| COc1ccccc1N=C1SCCCN1C | -3% |
| CCCCn1c(O)c(C(CC)=NCCN2CCCCC2)c(=O)[nH]c1=O | -10% |
| O=S(=O)(NCCO)c1cc[c]([Sb])cc1 | -2% |
| N=C1c2ccccc2CN1NC(=O)c1ccccc1 | -16% |
| CCCN1CCC[C@@H]2Cc3cn[nH]c3C[C@H]21 | -5% |
| CCCN1CCCC(c2cccc(O)c2)C1 (stereo not given) | 3% |
| CC1CCN(CC(=O)c2ccccc2Cl)CC1 | -6% |
| O=C(OCCCCN1C(=O)c2ccccc2C1=O)c1ccc(Br)o1 | 16µM* |
| O=C(OCC(=O)c1ccc([N+](=O)[O-])cc1)/C(=C/c1ccc(Cl)cc1)NC(=O)c1ccccc1 | -15% |
| CN1CCN(c2ccc3ccccc3n2)CC1 | -25%&-9% |
| O=c1c2ccccc2nc(-c2ccc(Cl)cc2Cl)n1-c1ccncc1 | -1% |
| CCOC(=O)C1=C(N)OC2=C(C(=O)CCC2)C12C(=O)N(CC(N)=O)c1ccccc12 (stereo not given) | -7% |
| COc1ccccc1N1CCNCC1 | -4%&-8% |
| COc1cccc(N2C(=O)NC(=O)C3(Cc4cc(C)ccc4N(C)C3)C2=O)c1 (stereo not given) | -22% |
| COc1ccc(Cc2nccc3cc(OC)c(OC)cc23)cc1OC | 14µM*! |
| COc1ccccc1CN1CCN(C(=O)COc2ccccc2)CC1 | 3% |
| N#CC1=C(N)Oc2c(c(=O)oc3ccccc23)C1c1ccc(OC(=O)N2CCOCC2)cc1 (stereo not given) | ? |
| CC(N=Cc1c(O)[nH]c(=O)[nH]c1=O)c1ccccc1 (stereo not given) | 28µM* |
| CCC(=NCCN1CCCCC1)c1c(O)n(C)c(=O)n(C)c1=O | -12% |
| N[C@H](CP(=O)(O)O)C(=O)O | -3% |
| Cc1cc(C)cc(-n2c(O)c(C=Nc3ccc(N4CCOCC4)cc3)c(=O)[nH]c2=S)c1 | -12% |
| Fc1ccc(CCNCc2ccc(Br)cc2)cc1 | -6% |
| CCOC(=O)C1C(=O)N(C)C2(C)CC1c1cc(OC)ccc1O2 (stereo not given) | -5% |
| C=CC(C)=O | -3% |
| O=C(O)C(=O)Cc1ccc2c(c1)OCO2 | -6% |
| C/C=C(\C)C(=O)OC1CC(OC(C)=O)[C@@]2(C(=O)OC)COC3C2[C@@]12CO[C@](O)(C(=O)OC)C2[C@](C)(C12OC1(C)C1CC2OC2OC=C[C@]21O)C3O (stereo not given in full) | -3% |
| CNc1ccccc1C(=O)O | ? |

Pulled by structure from the entries so far:
| SMILES | HPGD inh |
| --- | --- |
| CNc1ccccc1C(=O)O | ? |
| CC(N=Cc1c(O)[nH]c(=O)[nH]c1=O)c1ccccc1 (stereo not given) | 28µM* |
| O=c1c2ccccc2nc(-c2ccc(Cl)cc2Cl)n1-c1ccncc1 | -1% |
| O=C(O)C(=O)Cc1ccc2c(c1)OCO2 | -6% |

New compounds follow.
| SMILES | HPGD inh |
| --- | --- |
| CCCCCCn1c(O)c(C=NCCN2CCCCC2)c(=O)[nH]c1=O | -8% |
| OC(Cn1c2ccccc2c2ccccc21)C[n+]1ccccc1 (stereo not given) | -4% |
| CC(C)[C@]1(NC(=O)[C@@H]2C=C3c4cccc5[nH]cc(c45)C[C@H]3N(C)C2)O[C@@]2(O)C3CCCN3C(=O)[C@H](Cc3ccccc3)N2C1=O (stereo not given in full) | ? |
| CC1(C)N(O)C(c2ccc(C(=O)O)cc2)=[N+]([O-])C1(C)C | -8% |
| O=[N+]([O-])c1cc(O)c(O)c([N+](=O)[O-])c1 | ? |
| CN1CC=C2C(C#N)=C(N)C(C#N)(C#N)C(c3ccncc3)C2C1 (stereo not given) | ? |
| O=C(C1CCCO1)N1CCC2(CC1)OCCO2 (stereo not given) | -2% |
| CCn1cc(C(=O)O)c(=O)c2cc3c(cc21)OCO3 | -12%&-8%&-13% |
| COCCOC(=O)c1c(N)n(Cc2ccco2)c2nc3ccccc3nc12 | ? |
| O=C(c1cc(C(=O)NCc2ccccc2)c(=O)n(Cc2ccccc2)c1)c1cc(Cl)ccc1O | 16µM* |
| Cc1nn(Cc2ccccc2Cl)c(Cl)c1C(=O)OCC(=O)NCc1ccco1 | -11% |
| [N-]=[N+]=NCC(=O)c1c[nH]c(=O)[nH]c1=O | -13% |
| COCCOC(=O)C1=C(N)OC(C)=C(C(=O)OC)C12C(=O)Nc1ccccc12 (stereo not given) | -6% |
| CCC1(CCCC(=O)c2ccc(F)cc2)C(=O)NC(=S)NC1=O | -9% |
| Cn1cc(C(=O)c2ccccc2)c2ccccc21 | -14% |
| COc1cc(C)c(CN2CCN(c3ccccc3)CC2)cc1C | -11% |

An excerpt from above in order of molecular weight, largest number first.
| SMILES | HPGD inh |
| --- | --- |
| O=C(OCC(=O)c1ccc([N+](=O)[O-])cc1)/C(=C/c1ccc(Cl)cc1)NC(=O)c1ccccc1 | -15% |
| CCOc1ccc(N=Cc2c(O)n(C(C)(C)C)c(=O)[nH]c2=O)cc1 | ? |
| CC1CCN(CC(=O)c2ccccc2Cl)CC1 | -6% |

Screening results from PubChem.
